Compound activity: PubChem BioAssay, Johns Hopkins Ion Channel Center
CHT allo act – allosterically activates the human high affinity choline transporter; AID 488977; actives 0.49% (n = 310,000); Q9GZV3; CHT-expressing cells, membrane potential dye, choline EC20; active compounds read high; LV-AA mutant CHT in HEK293 cells; B-score at 10 µM;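 active = initial fluorescence not abnormally high and integrated response B-score, plate-corrected, over 3 SD above library mean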
Target sequence (Q9GZV3 whole entry, looked up): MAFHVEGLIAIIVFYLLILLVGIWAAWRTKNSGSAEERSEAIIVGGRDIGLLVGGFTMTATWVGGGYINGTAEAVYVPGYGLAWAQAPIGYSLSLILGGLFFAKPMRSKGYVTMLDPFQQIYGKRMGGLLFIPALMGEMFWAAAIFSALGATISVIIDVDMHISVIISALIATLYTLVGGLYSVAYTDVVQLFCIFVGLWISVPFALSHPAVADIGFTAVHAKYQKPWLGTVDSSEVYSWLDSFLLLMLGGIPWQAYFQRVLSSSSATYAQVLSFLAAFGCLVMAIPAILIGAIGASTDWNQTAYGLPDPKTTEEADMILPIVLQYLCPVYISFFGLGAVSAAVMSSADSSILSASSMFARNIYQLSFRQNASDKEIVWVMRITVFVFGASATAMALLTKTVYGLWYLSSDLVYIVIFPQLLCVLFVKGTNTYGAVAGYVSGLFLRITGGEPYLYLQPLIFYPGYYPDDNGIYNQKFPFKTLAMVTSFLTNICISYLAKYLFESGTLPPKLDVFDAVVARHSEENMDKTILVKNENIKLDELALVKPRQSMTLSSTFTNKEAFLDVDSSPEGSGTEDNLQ
CHT block – inhibits the human high affinity choline transporter; CHT-expressing cells, membrane potential dye, choline response; active compounds read low; B-score at 10 µM; actives 0.86% (n = 310,000);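 active = B-score over 3 SD under the library average, and starting fluorescence ratio not unusually high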;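 note: choline stimulus applied at its EC90 after an EC20 pre-addition; B-score computed on integrated fluorescence ratio after choline addition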
Calls only; i = inactive.

SMILES,CHT allo act,CHT block
CCCCN1C2=C(C(=O)CCC2)C(c2ccc(Cl)c(Cl)c2)C2=C1c1ccccc1C2=O (stereo not given),i,i
COc1cc(C)c(Cl)cc1S(=O)(=O)N(C)C,i,i
Cc1ccc(NC(=O)c2cccs2)cc1NC(=O)c1ccccc1Cl,i,i
CC(C)NS(=O)(=O)c1ccc(NC(=O)C2CCCCC2)cc1,i,i
c1ccc(-n2nnnc2-n2cnc3ccccc32)cc1,i,i
N/C(=N\NC(=O)c1ccccc1Cl)c1cc2ccccc2oc1=O,i,i
CCOc1ccc2nc(SCC(=O)NCc3ccc(S(N)(=O)=O)cc3)[nH]c2c1,i,i
COCCSc1ccccc1C(=O)Nc1ccccc1C(C)C,i,i
CCCOc1ccccc1/C=C(\C#N)C(=O)Nc1cccnc1,i,i
COc1ccc(Cl)cc1N1C(=O)CC(Sc2ccccc2N)C1=O (stereo not given),i,i
Cc1ccc(-n2nc(C(=O)NCc3ccco3)c3c4ccccc4n(C)c3c2=O)cc1,i,i
Cc1ccnc(NS(=O)(=O)c2ccc(NC(=O)c3oc4ccccc4c3C)cc2)n1,i,i
COC(=O)c1ccc(Oc2c(C)oc3cc(OCc4cnn(-c5ccccc5)c4)ccc3c2=O)cc1,i,i
COc1ccc(C)cc1NC(=O)c1ccc(NC(=O)CC2SC(N3CCCC3)=NC2=O)cc1 (stereo not given),i,i
Cc1ccccc1OCCn1nc(C(=O)O)c2ccccc2c1=O,i,i
Cc1ccccc1NC(=O)CSc1ccsc1[N+](=O)[O-],i,i
c1ccc(Cc2ccc(OCCN3CCOCC3)cc2)cc1,i,i
Cc1nonc1OCCNCc1c(C(=O)N2CCCCCCC2)nc2ccc(Cl)cn12,i,i
O=C(COC(=O)c1c[nH]c(=O)[nH]c1=O)Nc1ccccc1Br,i,i
Cc1ccsc1CN(C)C(=O)CCc1nnc(COc2ccccc2)o1,i,i
CCC(=O)N1CCC(C(N)=O)(N2CCCCC2)CC1,i,i
O=C(Nc1ccccc1)N1C(=O)C2(OCCO2)c2ccccc21,i,i
O=C1C2CC=CCC2C(=O)N1c1ccc(NCCc2cccc(F)c2)c([N+](=O)[O-])c1 (stereo not given),i,i
CN(C)S(=O)(=O)Nc1ccccc1C(N)=O,i,i
O=C(Nc1ccc(S(=O)(=O)Nc2nccs2)cc1)c1cc(=O)[nH]c2ccccc12,i,i
N#C/C(C(=O)c1ccccc1)=C1/CCCCCN1,i,i
CC(C)NC(=O)C(C)Oc1ccc(S(=O)(=O)NCc2ccc3c(c2)OCO3)cc1 (stereo not given),i,i
Cc1nnc(SCc2nc3ccccc3nc2C)s1,i,i
Cc1ccccc1N(C(=O)Cn1nnc2ccccc21)C(C(=O)NCc1ccco1)c1ccncc1 (stereo not given),i,i
CSc1nc(Sc2ccc(Cl)cc2)c2ccccc2n1,i,i
Cc1ccc(C(=O)O)cc1NC(=O)C1CCCN1S(=O)(=O)c1cccc2nsnc12 (stereo not given),i,i
CC1=C(C(=O)N2CCOCC2)C(c2cccs2)NC(=O)N1 (stereo not given),i,i
NC(=O)C1(N2CCCCC2)CCN(C(=S)Nc2cccc(Cl)c2)CC1,i,i
CC(C)(C)N1CC(C(=O)Nc2ccc(S(N)(=O)=O)cc2)CC1=O (stereo not given),i,i
CCOc1ccc2[nH]c(=O)c(CN(CCO)C(=O)c3ccccc3F)cc2c1,i,i
O=C(Oc1ccccc1N1C(=O)CCC1=O)c1ccco1,i,i
Cc1cc(C)c2nc(SCC(=O)N(C)C3CCS(=O)(=O)C3)cc(C)c2c1 (stereo not given),i,i
Cc1cc(C)cc(NC(=O)Cn2nnc(C(=O)NCc3ccc4c(c3)OCO4)c2N)c1,i,i
Cc1cc(/C=N/NC(=O)COc2cccc3cccnc23)c(C)n1-c1ccc(O)cc1,i,i
C/C(=N\NC(=O)c1cc(-c2ccc(Br)s2)[nH]n1)c1ccncc1,i,i
CCS(=O)(=O)n1nc(-c2ccccc2)nc1SCc1ccccc1,i,i
Cc1[nH]c2ccccc2c1C(=O)COC(=O)c1c(-c2ccccc2)noc1C,i,i
NS(=O)(=O)c1ccc(CCNCC(=O)NC2CC2)cc1,i,i
Cc1csc(=O)n1CC(=O)OCC(=O)NCc1ccc(F)cc1,i,i
COC(=O)c1cc(Oc2ccc(C(=O)OC)cc2N)cc(C(=O)OC)c1,i,i
O=C(OCc1ccc([N+](=O)[O-])cc1)C1CCN(S(=O)(=O)c2ccccc2)CC1,i,i
CCOC(=O)c1c(N2C(=O)CC(Sc3ccccc3C(=O)O)C2=O)sc(C)c1C (stereo not given),i,i
CCOC(=O)C1CCCN(c2ncnc3c2cnn3-c2ccc(Cl)cc2)C1 (stereo not given),i,i
Cc1cc(N2CCC(C(=O)NC3CC3)CC2)nc(-c2ccccc2)n1,i,i
CC(=O)NCCSC(=O)c1ccc(F)cc1,i,i

Next compounds:
SMILES,CHT allo act,CHT block
COc1cc(/C=C/C(=O)OCC(=O)NC2CCS(=O)(=O)C2)ccc1O (stereo not given),i,i
COc1ccc(N(CC(=O)Nc2ccc3c(c2)OCCO3)S(C)(=O)=O)c(OC)c1,i,i
NCCCC[C@H](NC(=O)C1CCNCC1)c1nnc([C@@H](N)CO)o1,i,i
Cc1ccc(CCc2nnc(SCC(=O)Nc3ccccc3Cl)n2-c2ccccc2)o1,i,i
CCn1c(SCC(=O)NCCc2ccc(OC)c(OC)c2)nc2c1c(=O)n(C)c(=O)n2C,i,i
CCOc1ccc(N2C(=O)Cc3ccccc3C2=O)cc1,i,i
Cc1ccc(-c2nnn(CCOc3cccc(Br)c3)n2)cc1,i,i
Cc1cccc(-n2c(O)c(C=Nc3cccc(O)c3)c3ccccc3c2=O)n1,i,i
CN(CC(=O)Nc1ccc(N2CCOCC2)cc1)C(=O)c1cn(-c2ccccc2)nc1-c1ccccc1,i,i
O=C(NCc1ccccc1)/C(=C/c1ccccc1)NC(=O)c1ccco1,i,i
CCCSc1ccc([C@H]2N[C@@](Cc3ccccc3)(C(=O)OC)[C@H]3C(=O)N(CC)C(=O)[C@@H]23)cc1,i,i
CC(NC(=O)C(=O)NCc1cccs1)c1ccccc1 (stereo not given),i,i
N#C/C(=C\c1ccc(F)c(Cl)c1)S(=O)(=O)c1ccccn1,i,i
COC(=O)C1(C(F)(F)F)N=C(C(F)(F)F)Nc2ccc(Cl)cc21 (stereo not given),i,i
C=CCN1CCN(C(=O)CSc2ccccc2)CC1,i,i
CC(C)NC(=O)CC(=O)N/N=C/c1ccccc1F,i,i
COc1ccc(-c2oc3cc(O)c(OC)c(O)c3c(=O)c2OC)cc1,i,i
COc1ccc(-c2nc3c(s2)CCc2onc(-c4ccc(Br)cc4)c2-3)cc1,i,i
Cn1nnnc1-c1cc(Cl)cc(Cl)c1,i,i
COc1cc(/C=N\NC(=O)c2ccc(Cl)cc2)ccc1Oc1ccc([N+](=O)[O-])cn1,i,i
NC(=S)NNc1ccc(Cl)c(Cl)c1,i,i
COC(=O)C1=C(C)N(Cc2ccc3c(c2)OCO3)C(=O)C1,i,i
O=S(=O)(Nc1cccnc1)c1cccc(C(F)(F)F)c1,i,i
COc1cccc(OC)c1OC(=O)c1cnccn1,i,i
O=C(CSc1ccc2ccccc2c1Br)Nc1cccc(S(=O)(=O)NC2=NCCCCC2)c1,i,i
O=C1CC(c2ccc(O)cc2)Oc2cc(O)ccc21 (stereo not given),i,i
CC(C)Oc1ccc(CCc2n[nH]c(=S)n2-c2ccccc2)cc1,i,i
COc1ccccc1CNC(=O)COc1ccc(Br)c(C)c1,i,i
Cc1cccc(C(=O)NNC(=O)c2ccccc2O)c1,i,i
Cc1ccc(N2CN(S(=O)(=O)c3cccc([N+](=O)[O-])c3)c3nc4ccccc4nc32)cc1,i,i
COc1cccc(C(CC(=O)NCc2ccco2)NS(=O)(=O)c2ccc(C)cc2)c1OC (stereo not given),i,i
COc1ccc(C(=O)Nc2cccc(/C=C/c3nc4ccccc4c(=O)[nH]3)c2)cc1,i,i
COc1ccc(C(=O)N2CCc3cc(OC)c(OC)cc3C2)cc1OC,i,i
CCOc1ccccc1C(=O)Nc1nn[nH]n1,i,i
CC(C)n1c(CCC(=O)O)ccc1-c1ccccc1,i,i
Cc1cccc(OCc2nc3ccccc3n2C)c1,i,i
CC1CC1C(=O)Nc1ccc(-c2ccccc2)cc1 (stereo not given),i,i
Cc1cccc(N2CCN(C(=O)COc3ccc4c(c3)CCC4)CC2)c1C,i,i
O=C(Nc1ccc2c(c1)OCCO2)c1c(F)c(F)c(F)c(F)c1F,i,i
Cc1c(C(=O)O)c(C(=O)O)c2n1CCS2,i,i

Filtered by structure, the entries above with a nitro group on carbon (five)
SMILES,CHT allo act,CHT block
Cc1ccccc1NC(=O)CSc1ccsc1[N+](=O)[O-],i,i
O=C1C2CC=CCC2C(=O)N1c1ccc(NCCc2cccc(F)c2)c([N+](=O)[O-])c1 (stereo not given),i,i
O=C(OCc1ccc([N+](=O)[O-])cc1)C1CCN(S(=O)(=O)c2ccccc2)CC1,i,i
COc1cc(/C=N\NC(=O)c2ccc(Cl)cc2)ccc1Oc1ccc([N+](=O)[O-])cn1,i,i
Cc1ccc(N2CN(S(=O)(=O)c3cccc([N+](=O)[O-])c3)c3nc4ccccc4nc32)cc1,i,i

Following part
SMILES,CHT allo act,CHT block
Cc1c(NC(=O)Cn2nc(C(=O)O)c3ccccc3c2=O)c(=O)n(-c2ccccc2)n1C,i,i
O=C(Cc1nc(-c2ccc([N+](=O)[O-])cc2)cs1)Nc1ccccc1,i,i
COc1ccc(CNC(=O)c2ccccc2SC)cc1,i,i
COc1ccc(/C=N/N2CCOCC2)cc1OCc1ccccc1,i,i
Cc1ccc(C(=O)COC(=O)CNC(=O)c2ccc(Br)o2)cc1[N+](=O)[O-],i,i
CC(C)C(=O)NNC(=O)c1c(O)c2ccccc2[nH]c1=O,i,i
Cc1ccc(NC(=O)/C(=C/c2ccncc2)NC(=O)c2ccccc2)cc1,i,i
CCN1CCCC1CNC(=O)Cn1nc(C)n2c(cc3cc(F)ccc32)c1=O (stereo not given),i,i
CCOC(=O)c1cc(C)sc1NC(=O)C(c1ccccc1)c1ccccc1,i,i
CCCc1ccc(S(=O)(=O)NCC2CCCN2CC)cc1 (stereo not given),i,i
CN(CCCCCC(=O)/C=N/O)Cc1ccccc1,i,i
CCC(C)C(NC(=O)c1ccccc1NC(=O)c1ccc(OC)cc1)C(=O)NCc1ccco1 (stereo not given),i,i
C=C(C)Cn1c(-c2ccccc2)nc2ccccc21,i,i
CON(C)c1nc(OCCNC(=O)OCc2ccc(Cl)cc2C)nc(N(C)C)n1,i,i
N=c1nc(N)nc2n1NC(c1ccc(F)cc1)=CS2,i,i
COC(=O)C1=C(C)NC(C)=C(C(=O)OC)C1c1cn(-c2ccccc2)nc1-c1ccco1,i,i
CCCc1nnc2c(N(C)S(=O)(=O)c3ccccc3)nc3ccccc3n12,i,i
NC(=O)Nc1ccc(Nc2ccccc2)cc1,i,i
COc1ccc(/C=N/Nc2cc(C)nc(-n3nc(C)cc3C)n2)cc1,i,i
Cc1cc(NC(=O)c2ccc(S(=O)(=O)N(C)CC3CCCO3)cc2)no1 (stereo not given),i,i
COC(=O)c1cc(-c2ccc(S(=O)(=O)N3CCCCC3)cc2)c(C(F)(F)F)s1,i,i
COc1cccc(CNC(=O)CCC2CCCN(C(=O)c3ccoc3C)C2)c1 (stereo not given),i,i
Cc1cc(C)cc(CSc2nnc(C)c(=O)[nH]2)c1,i,i
Cc1nnc(Nc2ccc3c(c2)OCO3)c2ccccc12,i,i
N#Cc1cn(CCOc2ccccc2F)c2ccccc12,i,i
COCCNC(=O)C(c1ccc(C)o1)N(Cc1ccccc1)C(=O)Cn1nnc2ccccc21 (stereo not given),i,i
CC(CS(=O)(=O)c1cccc2cccnc12)N1CCCCC1 (stereo not given),i,i
Cn1ncc(Br)c1C(=O)Nc1ccc(F)cc1F,i,i
CCc1cccc(C)c1NC(=S)N(CCCN1CCOCC1)Cc1cccnc1,i,i
O=C(CSc1ncn(-c2ccccc2)n1)Nc1nncs1,i,i
COc1cc(C(c2c(C)[nH][nH]c2=O)c2c(C)[nH][nH]c2=O)ccc1OC(=O)c1cccc([N+](=O)[O-])c1,i,i
CCN(Cc1cnn(C)c1)C(=O)c1cc(COc2ccc(F)cc2F)on1,i,i
CCOc1ccccc1NC(=O)NC1(C(=O)NCc2cccnc2)CCCCC1,i,i
NS(=O)(=O)c1ccc(NC(=O)COC(=O)c2ccc([N+](=O)[O-])s2)cc1,i,i
CCCCCN(C(=O)CCC(=O)OCC(=O)c1cccc(OC)c1)c1c(N)n(CCCC)c(=O)[nH]c1=O,i,i
CCN1CCN(CCC(=O)Nc2cc(OC)ccc2OC)CC1,i,i
O=C(CSc1nnnn1C1CCCCC1)N1CCc2ccccc21,i,i
O=C(NCC1c2ccccc2CCN1C(=O)CN1CCOCC1)C1CCCCC1 (stereo not given),i,i
Cc1ccccc1NC(=O)CSc1nc2ccccc2c2nc(CCn3cncc3C)nn12,i,i
CC(=O)Oc1cccc(N2C(=O)C3C(C2=O)C2C=CC3C23CC3)c1 (stereo not given),i,i
CNCC(O)Cn1c2c(c3ccccc31)CCCC2 (stereo not given),i,i

This is a subset; most or all hits stand in other tables.
